From PubChem
VDR inhibitor = Inhibitors of the vitamin D receptor (VDR): qHTS | 400,000 compounds, 0.93% hits | AID 504847, 2011 | VDR-SRC2-3 peptide fluorescence polarization, 2 h | Potency, µM, without a hit: max response, negative = inhibition, hits mostly inhibitors; active means well fitted inhibition curve with a large enough effect; further: series mostly up to about 120 µM
Target sequence (P11473 whole entry, looked up): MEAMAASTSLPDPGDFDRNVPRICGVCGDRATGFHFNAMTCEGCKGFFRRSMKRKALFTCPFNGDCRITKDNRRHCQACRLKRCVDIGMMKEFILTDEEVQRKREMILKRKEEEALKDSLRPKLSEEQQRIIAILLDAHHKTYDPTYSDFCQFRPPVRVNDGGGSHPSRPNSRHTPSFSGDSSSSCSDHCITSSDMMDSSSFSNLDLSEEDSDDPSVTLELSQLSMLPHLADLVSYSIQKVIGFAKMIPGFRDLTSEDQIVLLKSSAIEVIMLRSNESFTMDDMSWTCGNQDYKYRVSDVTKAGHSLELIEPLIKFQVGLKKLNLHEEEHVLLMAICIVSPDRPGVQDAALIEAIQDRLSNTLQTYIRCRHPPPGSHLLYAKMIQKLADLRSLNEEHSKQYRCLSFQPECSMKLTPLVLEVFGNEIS
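Measured by FP: displacement of SRC2-3 coactivator peptide from VDR by library compounds, following a two-hour ambient incubation.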
The depositor's hits bear a star. On the % scale 0 is the no-effect control and ±100 the full control effect; potency means the concentration at half of the fitted maximal effect.

The first 3 entries (preview)
SMILES	VDR inhibitor
CC(C)(CNC(=O)c1cc2c(s1)CCCC2)N1CCOCC1	15.1%
Cc1ccccc1CN1CCNC(=O)C1CC(=O)N(C)CCC1CCOCC1 (stereo not given)	-9.6%
CC(C)C[C@H]1CNC(=S)N1CC1CCN(CCC23CC4CC(CC(C4)C2)C3)CC1	-16.4%

Main list, repeating the preview:
SMILES	VDR inhibitor
CC(C)(CNC(=O)c1cc2c(s1)CCCC2)N1CCOCC1	15.1%
Cc1ccccc1CN1CCNC(=O)C1CC(=O)N(C)CCC1CCOCC1 (stereo not given)	-9.6%
CC(C)C[C@H]1CNC(=S)N1CC1CCN(CCC23CC4CC(CC(C4)C2)C3)CC1	-16.4%
c1ccc(C(c2nnnn2C2CCCC2)N2CCN(c3ccccc3)CC2)cc1 (stereo not given)	-14.1%
Cc1ccc(-n2c(N)c(C#N)c(-c3ccc(Cl)cc3)c(C#N)c2=O)cc1	1.5%
Cn1c(=O)n(C)c2cc(S(=O)(=O)Nc3ccccc3)ccc21	10.3%
O=[N+]([O-])/C(N=Nc1ccccc1)=N\Nc1ccccc1	-3.3%
COc1ccccc1N1CC(C(=O)Nc2ccc3c(c2)OCO3)CC1=O (stereo not given)	22.7%
O=C(CSc1nncn1-c1ccccc1)Nc1ccccc1F	2.8%
S=C(Nc1ccc2c(c1)OCO2)N1CCN(Cc2ccco2)CC1	-13.7%
CCN(CC)C(=O)CCCC(=O)N(CC)CC	-12.7%
CCc1ccc(OCC(=O)OC(C)C(=O)NC2CC2)cc1 (stereo not given)	-6.0%
CC12CCC(c3c1nc1ccccc1[n+]3[O-])C2(C)C (stereo not given)	70.8µM*
COC(=O)CS(=O)(=O)c1cccc2cccnc12	-12.9%
CC(C)(C)c1ccc(C(=O)C2CCCN(C(=O)CCn3cncn3)C2)cc1 (stereo not given)	12.8%
N#CC1C(=O)NC(c2ccccc2)=CC1c1ccccc1 (stereo not given)	-10.6%
CC(=O)Nc1ccc(C=NNC(=O)C2CC2)cc1	3.1%
Cc1ccccc1CS(=O)(=O)Cc1ccc(C(=O)NC2CCCC2)o1	13.0%
CCC(C(=O)OC)n1c(-c2ccccc2)nc2ccccc2c1=O (stereo not given)	-4.2%
O=C(Nc1ccc(Cl)cc1)N1CCN(c2ccc3nnc(-c4ccccc4)n3n2)CC1	8.5%
Cc1cc(C)cc(NC(=O)Cc2ccc(S(=O)(=O)N3CCCC3)s2)c1	2.5%
COc1cc(/C=C/C(=O)N2CCN(c3n[nH]c(=O)[nH]c3=O)CC2)cc(OC)c1OC	3.6%
C=C(C)c1sc(-c2ccc(Cl)cc2)nc1C	-0.7%
Cc1c(C(=O)N2CCCC2)sc(NC(=O)c2ccc(Cl)cc2)c1C#N	-3.2%
COC(=O)c1sc(NC(=O)c2ccco2)c(C#N)c1C	4.6%
NC(=O)C1CCN(Cc2nc3c(Br)cc(Br)cc3c(=O)[nH]2)CC1	7.5%
c1ccc(Nc2scc(-c3ccccc3)[n+]2Cc2ccco2)cc1	-18.5%
COc1ccc(NC(=O)C2CCCN2C(=O)NCc2ccccc2)cc1 (stereo not given)	70.8µM*
Fc1cccc2sc(Nc3nc4c(F)cccc4s3)nc12	-13.0%
COc1ccc(C2C(=O)N(C3CCCCC3)CC(=O)N2CC2COc3ccccc3O2)cc1 (stereo not given)	10.2%
CC(C)CC(=O)NC1(C(F)(F)F)C(=O)Nc2c1c(=O)n(C)c(=O)n2C (stereo not given)	6.9%
COc1ccc(OC(=O)CCN2C(=O)C3C4C=CC(C4)C3C2=O)cc1 (stereo not given)	6.6%
CCSc1ncnc2c1oc1ccccc12	-4.8%
O=C(OCCN1CCCCC1)c1cccc(F)c1	-6.7%
COc1cc(OC)cc(C(=O)Nc2ccc3c(c2)COC3=O)c1	-1.5%
Cc1cc(NC(=O)CN2CCN(S(=O)(=O)c3ccc4ccccc4c3)CC2)no1	-2.6%
COC(=O)c1ccccc1NC(=O)C1CCN(C(=O)N2CCOc3ccccc32)CC1	7.4%
Cc1ccc(C(=O)Cn2c(-c3ccccc3)noc2=O)cc1	1.7%
COc1cc2c3c(c1)c(C1=NC(=S)NC1=O)c(O)n3C(C)(C)C=C2C	-10.4%
CCOC(=O)C1=C(O)/C(=C/c2ccc(-c3ccccc3C(=O)O)o2)SC1=Nc1ccc(C)cc1	79.4µM*
O=C1CCCc2nc(N3CCN(C(=O)c4ccco4)CC3)ncc21	3.8%
CCCC1S/C(=N/N=C/c2ccc(OC)cc2)N(Cc2ccccc2)C1=O (stereo not given)	-1.7%
Cc1nc(C)c(C(=O)C2=C(O)C(=O)N(CCN(C)C)C2c2cccs2)s1 (stereo not given)	3.0%
CCOc1cc(S(=O)(=O)N(CC)CC)ccc1F	-9.6%
NC(=O)c1ccccc1N/C=C/C(=O)c1cccs1	4.3%
COc1cc(F)ccc1S(=O)(=O)N1CCN(Cc2ccccc2)CC1	-10.7%
CCCC12CN3CC(C)(CN(C1)C3c1ccc(OC(C)C)cc1)C2=O (stereo not given)	1.6%
Cn1c(=O)c2c(nc(SCc3ccccc3)n2Cc2ccc(Cl)cc2)n(C)c1=O	-20.8%
Cn1c(C(=O)NCCN2CCCCCC2)cc2c(=O)n(C)c3ccccc3c21	-5.6%
CCCCN(C)CCNC(=O)C1CCCN(S(=O)(=O)c2ccc3c(c2)oc(=O)n3C)C1 (stereo not given)	-16.0%
O=C(CC1C(=O)N(c2ccc(F)cc2)C(=O)N1Cc1ccc2c(c1)OCO2)Nc1ccc(F)cc1 (stereo not given)	-16.2%
O=C(O)c1cnn(-c2nc(-c3ccc(Cl)cc3)cs2)c1C(F)(F)F	-2.4%
O=C1C(C=NCC2CCCO2)=C(O)c2ccccc21 (stereo not given)	4.9%
COc1ccc(CCNS(=O)(=O)c2cn(C)c(=O)n(C)c2=O)cc1	-21.9%
Cc1cc(C)c2c(NC(=S)NC(=O)c3ccccc3)n[nH]c2n1	-21.4%
CC(=O)c1cc2c(cc1NC(=O)CSc1nc3ccc(C)cc3[nH]1)OCO2	-8.6%
Cc1ccc(N2CC(C(=O)Nc3cccc(C(=O)NC4CC4)c3)CC2=O)cc1 (stereo not given)	0.4%
COc1ccc(C(c2nnnn2CCc2ccccc2)N2CCN(C3CCCC3)CC2)cc1OC (stereo not given)	-0.2%
O=C(CN(C(=O)CCC(=O)Nc1nccs1)c1ccc2c(c1)OCO2)NCc1ccccc1	26.5%
CC1(C)CC(=O)C2=C(C1)NC(Nc1nc3ccccc3o1)=NC2c1ccccc1 (stereo not given)	9.8%
Continuation:
SMILES	VDR inhibitor
Cc1nc2ccccc2c(=O)n1NC(=O)C1CCCCC1	-4.1%
Cc1ccc(C(=O)NCC(=O)N2CCC3(CC2)NCCc2[nH]cnc23)cc1C	-5.4%
COc1ccc(/C=N/n2cnnc2)cc1Cn1nc(C)c([N+](=O)[O-])c1C	-0.5%
COc1ccc2c(c1)cc(C(=O)N[C@H](C(=O)N1CCC(C(=O)O)CC1)C(C)C)n2C	14.1%
Cc1ccccc1Nc1nc(N)nc(CSc2n[nH]c(N)n2)n1	11.4%
Cc1ccc(S(=O)(=O)N2CCN(c3nc(-c4ccc(CN5CCNCC5)s4)nc4ccccc34)CC2)cc1	-20.6%
CCn1cc([N+](=O)[O-])c(C(=O)N2N=C(c3ccc4ccccc4c3)CC2c2cc(Br)ccc2O)n1 (stereo not given)	-6.2%
Cc1ccc(N(CC(=O)NCC(C)c2ccccc2)S(=O)(=O)N(C)C)cc1 (stereo not given)	4.7%
CC1=CC2=NC(=O)/C(=C\c3cccn3CCOc3ccc(C)c(C)c3)C(=N)N2O1	0.1%
COCc1cc(=O)[nH]c(Nc2nc(C)c3ccccc3n2)n1	-13.9%
COc1cccc(-c2noc(COc3ccccc3Cl)n2)c1	10.0%
CC1CCCCN1CCCNC(=O)c1cc(Br)c(Br)[nH]1 (stereo not given)	-18.2%
Cc1ccc(-c2nnn(CC(=O)N(Cc3ccco3)C(C(=O)NC3CCCC3)c3cccs3)n2)o1 (stereo not given)	-6.9%
CN(C)c1ccc(CNC(=O)CCn2cccn2)cc1	3.2%
CCc1ccc(NC(=O)CCCN2C(=O)C3CC=CCC3C2=O)cc1 (stereo not given)	-1.5%
C/C=C(/C(=C/C)c1ccc(O)cc1)c1ccc(O)cc1	-9.6%
Cc1cc(C)c2nc(C(F)(F)F)c(C#N)c(N)c2c1	0.6%
CCN(CC)CC(O)CCCCCCCCC(=O)OC (stereo not given)	-5.2%
CCCn1c2ccccc2c2cnn(CC(=O)N(Cc3ccccc3)C(C)C)c(=O)c21	0.6%
Cc1nn2c(=O)cc(COC(=O)c3ccc(NC(=O)c4cccc(Br)c4)cc3)nc2s1	-8.1%
COc1ccccc1NC(=O)CCc1nnc2ccc(N3CCN(C)CC3)nn12	10.2%
CCOC(=O)N1CCN(C(=O)COc2cccc3c2CCN(Cc2ccccc2F)C3=O)CC1	2.5%
CCN(CC)C(=O)CSc1nnc(-c2ccccc2)o1	9.0%
CCSc1nnc(NC(=O)CSc2nnc(CNC(=O)c3ccccc3F)o2)s1	10.8%
COc1ccc(-n2c(C)nc3cc(C(=O)NCc4ccc5c(c4)OCO5)ccc32)cc1	3.9%
Cc1ccc(-c2noc(CCC(=O)NC3CCN(Cc4ccccc4)CC3)n2)cc1	-5.0%
COc1ccc(NC(=O)CN(C)CC(=O)Nc2ccccc2SC)cc1Cl	-18.5%
CCOC(=O)c1sc(NC(C)=O)cc1C	-5.6%
N#CC(C(=O)OCc1ccccc1)c1nc2ccccc2nc1N1CCOCC1 (stereo not given)	-5.7%
CCC(=O)N(Cc1cc2cc(OC)ccc2[nH]c1=O)c1ccc(C)cc1C	-5.3%
Cc1ccc(NC(=O)COC(=O)C2C3CC4OC(=O)C2C4C3)cc1 (stereo not given)	-6.6%
COc1ccc(C(=O)N(Cc2ccccc2)Cc2cc3cc4c(cc3[nH]c2=O)OCCO4)cc1	9.6%
Cc1ccc(-c2nnc(SCc3cccc(C#N)c3)o2)cc1	-5.5%
O=C(Nc1ccc(F)c(Cl)c1)N1CCC2(CC1)Oc1ccccc1C(=O)N2Cc1ccccc1F	-18.1%
COc1ccc2oc(=O)c(C(=O)NCc3ccc4c(c3)OCO4)cc2c1	-0.9%
CCCS(=O)(=O)N1CCCC(c2nc(-c3cccc(OC)c3)no2)C1 (stereo not given)	-0.6%
CN(C(=S)NC(=O)c1ccc(Br)o1)c1ccccc1	-9.4%
Cc1nc2nc[nH]n2c(=O)c1CCOC(=O)c1ccccc1F	-15.5%
CCC1(c2ccc(F)cc2)NC(=O)N(CC(=O)Nc2cccc(S(=O)(=O)N3CCCCC3)c2)C1=O (stereo not given)	-5.5%
CC(/C=C1\N=C(SCc2ccccc2Cl)SC1=O)=C\c1ccccc1	-10.1%
CCN(CC(=O)NCc1ccc(Cl)cc1)C(=O)CSc1ccccc1F	7.9%
COc1ccccc1NC(=O)CC(=O)Nc1ccccc1OC	5.8%
O=C(NC1CCCc2ccccc21)C(Cc1ccccc1)NS(=O)(=O)c1cccs1 (stereo not given)	-11.4%
Cc1ccc(NC2=C(Cl)C(=O)OC2OC(=O)c2ccco2)cc1 (stereo not given)	-4.5%
C/C(=N\OCc1nc2ccccc2c(=O)n1/N=C/c1cc([N+](=O)[O-])ccc1O)c1ccccc1	-12.5%
CC1=C(C(=O)Nc2ccc(C)cc2Cl)C2(CCCCC2)OC1=O	-17.2%
O=C(O)C1CC(=O)N(Cc2ccc3c(c2)OCO3)C1 (stereo not given)	-2.6%
Cn1nnnc1SCC(=O)C(C)(C)C	-6.2%
CC(C)CCNC(=O)C1CCN(C(=O)N(C)C)CC1	17.0%
O=C(Cc1ccccc1)NC(NC(=O)Cc1ccccc1)c1cccc([N+](=O)[O-])c1	-5.1%
Cc1ccc(NC(=O)Cn2cc(S(=O)(=O)N3CCN(c4ccccc4F)CC3)c3ccccc3c2=O)cc1F	-2.5%
CN(C)S(=O)(=O)c1ccc(NC(=O)CN2CCCCCC2)cc1	19.8%
C/C(=N\NS(=O)(=O)c1ccccc1)c1ccc2c(c1)OCCO2	-13.3%
CCCCNC(=O)c1cc2cc(OC)ccc2[nH]1	-8.3%
Cc1ccc(Nc2nc(C(=O)N3CCC(C(=O)NCc4ccccc4)CC3)cs2)cc1	3.9%
O=C(N/N=C/c1ccc([N+](=O)[O-])o1)c1cn(-c2ccccc2)nc1-c1ccccc1	-14.2%
CCCCCCNc1cc2n(c(=O)n1)CCc1cc(OC)c(OC)cc1-2	0.6%
Cn1cnc(S(=O)(=O)N2CCN(c3cccc(Cl)c3)CC2)c1	8.9%
O=C(CCCn1c(=O)[nH]c2ccccc2c1=O)N1CCN(c2ccccc2)CC1	3.6%
CCOCc1nnc(NC(=O)c2cc(OC)cc(OC)c2)s1	0.3%

Reformatted field by field: entries from further up.
CCCCNC(=O)c1cc2cc(OC)ccc2[nH]1
- VDR inhibitor = -8.3%

O=C(CCCn1c(=O)[nH]c2ccccc2c1=O)N1CCN(c2ccccc2)CC1
- VDR inhibitor = 3.6%

CN(C)S(=O)(=O)c1ccc(NC(=O)CN2CCCCCC2)cc1
- VDR inhibitor = 19.8%

Cn1nnnc1SCC(=O)C(C)(C)C
- VDR inhibitor = -6.2%

Returning to the listing; the two compounds before the break are reprinted first.
SMILES	VDR inhibitor
O=C(CCCn1c(=O)[nH]c2ccccc2c1=O)N1CCN(c2ccccc2)CC1	3.6%
CCOCc1nnc(NC(=O)c2cc(OC)cc(OC)c2)s1	0.3%
OCCN1CCN(CC(O)COC(c2ccc(F)cc2)c2ccc(F)cc2)CC1 (stereo not given)	-9.8%
Cc1cnc(C(=O)Nc2nnc(SCc3c(Cl)cccc3Cl)s2)cn1	20.1%
CCOC(=O)c1sc(NC(=O)CCc2ccc(OC)cc2)nc1C	18.6%
Cc1c(C(=O)N2CCOCC2)oc2c1-c1nn(CC(=O)NCc3cccc(F)c3)cc1CC2	11.8%

A portion of the library; rates above refer to the full screens.
